# Vaccinia inh – Vaccinia orthopox stage-specific inhibition; Vaccinia-infected cells, mCherry/Venus stage reporter fluorescence; stronger effect = lower value; some inactives read as strong as hits; activity change (mCherry), % (test concentration not listed); 89,000 compounds, 0.01% hits; AID 1053133;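 active = mCherry past -33% and 40 or more points under the early reporter, replicates agreeing; inconclusive = past -33% without that gap or agreement; tested in A549 cells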;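 also: scaled between vehicle wells and reference inhibitor wells; 23 nL library stock went into each well; one replicate is shown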
# Vaccinia inh Venus – also measured in Vaccinia inh; calls as there; activity change (Venus), %; measured here: Venus reporter, other viral stage;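 negative = less Venus signal; first of two replicates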
# * marks the source's active call; other numbers are inactive results; ? = inconclusive; / = no result given.
SMILES,Vaccinia inh,Vaccinia inh Venus
COc1ccc(-c2ccc(C3[C@@H]4CN(Cc5cccc(OC)c5)C[C@H]3N4)cc2)cc1 (stereo partly specified),?,/
C[C@H]1CN([C@@H](C)CO)C(=O)c2cc(/C=C/c3ccccc3)cnc2O[C@H]1CN(C)Cc1ccccc1,-23,-22
Cc1noc(C)c1S(=O)(=O)N(C)C[C@H]1OCCCC[C@H](C)Oc2ccc(NC(=O)CCCN(C)C)cc2C(=O)N([C@@H](C)CO)C[C@@H]1C,18,9
CCC(=O)N1C[C@H](C)[C@@H](OC)CN(C)C(=O)c2cc(NC(=O)c3ccccc3)ccc2OC[C@H]1C,6,0
COCc1cn(CC[C@@H]2CC[C@@H](NC(=O)Nc3ccc4c(c3)OCO4)[C@H](CO)O2)nn1,5,19
CCCC(O)C#Cc1cnc2c(c1)C(=O)N([C@H](C)CO)C[C@H](C)[C@H](CN(C)Cc1cccc(C(F)(F)F)c1)O2 (stereo partly specified),-25,-16
C[C@H]1CN([C@@H](C)CO)C(=O)Cc2cc(NC(=O)C3CCCCC3)ccc2O[C@@H]1CN(C)Cc1ccc(C(F)(F)F)cc1,-4,-2
CCC(=O)N(C)C[C@@H]1Oc2ncc(C#CC(C)(C)O)cc2C(=O)N([C@H](C)CO)C[C@H]1C,14,8
C[C@@H]1CN([C@@H](C)CO)C(=O)c2cccc(NC(=O)NC3CCCCC3)c2O[C@@H]1CN(C)C(=O)Nc1ccc2c(c1)OCO2,-12,-6
O=C(C[C@H]1CC[C@@H](NS(=O)(=O)c2ccc(F)cc2)[C@H](CO)O1)N1CCC(Cc2ccccc2)CC1,-13,-9
CN(C)C(=O)C[C@H]1CC[C@@H]2[C@H](COC[C@H](O)CN2C(=O)C2CC2)O1,7,3
O=C(C[C@@H]1C[C@H]2c3cc(NC(=O)Nc4ccccc4F)ccc3O[C@H]2[C@H](CO)O1)NCc1ccncc1,8,9
CC(C)(O)C#Cc1ccc([C@@H]2[C@@H](CO)N3CCCCN(C(=O)c4ccc(F)cc4)C[C@H]23)cc1,17,8
COc1ccccc1-c1ccc2c(c1)O[C@@H](CN(C)C(=O)c1cccnc1)[C@@H](C)CN([C@@H](C)CO)S2(=O)=O,-2,-3
COCC(=O)Nc1ccc2c(c1)OC[C@@H](C)N(C(=O)c1cnccn1)C[C@H](C)[C@H](OC)CN(C)C2=O,12,11
CCS(=O)(=O)Nc1ccc2c(c1)C(=O)N(C)[C@H]1CC[C@H](CC(=O)NC)O[C@H]1CO2,8,5
C[C@H](CO)N1C[C@H](C)[C@H](CN(C)C(=O)NC2CCCCC2)OCCCC[C@H](C)Oc2ccc(NC(=O)C3CCCCC3)cc2C1=O,?,/
Cc1noc(C)c1NC(=O)N[C@@H]1C=C[C@@H](CC(=O)N2CCN(C)CC2)O[C@@H]1CO,8,-1
CCCC(=O)N1CC2(CN(S(C)(=O)=O)C2)c2c([nH]c3cc(OC)ccc23)[C@H]1CO,16,6
CO[C@H]1CN(C)C(=O)c2cc(NS(=O)(=O)c3ccccc3)ccc2OC[C@H](C)N(C(=O)NC(C)C)C[C@H]1C,24,7
C[C@@H]1CN([C@H](C)CO)C(=O)Cc2cc(NC(=O)C3CC3)ccc2O[C@@H]1CN(C)Cc1ccc(-c2ccccc2)cc1,?,/
CC(=O)N(C)C[C@@H]1Oc2cc(C#Cc3ccccn3)ccc2S(=O)(=O)N([C@@H](C)CO)C[C@H]1C,13,14
C[C@H](CO)N1C[C@H](C)[C@H](CN(C)S(=O)(=O)c2ccc(Cl)cc2)Oc2ccc(NC(=O)Nc3cccc4ccccc34)cc2C1=O,-14,-2
C[C@@H]1CN([C@@H](C)CO)C(=O)Cc2cc(NC(=O)Nc3cccc4ccccc34)ccc2O[C@@H]1CN(C)C(=O)Nc1ccc(C(F)(F)F)cc1,8,23
O=C(NC1CCC1)[C@H]1[C@H](CO)[C@H]2Cn3c(ccc(C4=CCCC4)c3=O)[C@@H]1N2CC1CC1,9,18
O=C(N[C@H]1CC[C@@H](CCNC(=O)c2ccccc2F)O[C@@H]1CO)c1cnccn1,4,4
C[C@H]1CN([C@@H](C)CO)C(=O)c2cc(C3=CCCC3)cnc2O[C@H]1CN(C)Cc1ccccc1C(=O)O,22,9
C[C@H]1CN([C@@H](C)CO)C(=O)Cc2cc(NC(=O)Cc3ccccc3)ccc2O[C@@H]1CN(C)CC1CCCCC1,-5,-7
O=C(C[C@@H]1C[C@@H]2c3cc(NS(=O)(=O)c4ccc(F)cc4)ccc3O[C@@H]2[C@@H](CO)O1)NCc1cc(F)ccc1F,-17,-6
COCC(=O)N(C)C[C@@H]1Oc2ncc(-c3ccc(F)cc3)cc2C(=O)N([C@@H](C)CO)C[C@@H]1C,26,11

# 10 compounds out of the list, ordered by count of non-hydrogen atoms, low to high.
SMILES,Vaccinia inh,Vaccinia inh Venus
O=C(N[C@H]1CC[C@@H](CCNC(=O)c2ccccc2F)O[C@@H]1CO)c1cnccn1,4,4
O=C(NC1CCC1)[C@H]1[C@H](CO)[C@H]2Cn3c(ccc(C4=CCCC4)c3=O)[C@@H]1N2CC1CC1,9,18
CC(=O)N(C)C[C@@H]1Oc2cc(C#Cc3ccccn3)ccc2S(=O)(=O)N([C@@H](C)CO)C[C@H]1C,13,14
COCC(=O)Nc1ccc2c(c1)OC[C@@H](C)N(C(=O)c1cnccn1)C[C@H](C)[C@H](OC)CN(C)C2=O,12,11
COc1ccccc1-c1ccc2c(c1)O[C@@H](CN(C)C(=O)c1cccnc1)[C@@H](C)CN([C@@H](C)CO)S2(=O)=O,-2,-3
O=C(C[C@@H]1C[C@@H]2c3cc(NS(=O)(=O)c4ccc(F)cc4)ccc3O[C@@H]2[C@@H](CO)O1)NCc1cc(F)ccc1F,-17,-6
C[C@@H]1CN([C@H](C)CO)C(=O)Cc2cc(NC(=O)C3CC3)ccc2O[C@@H]1CN(C)Cc1ccc(-c2ccccc2)cc1,?,/
C[C@H](CO)N1C[C@H](C)[C@H](CN(C)S(=O)(=O)c2ccc(Cl)cc2)Oc2ccc(NC(=O)Nc3cccc4ccccc34)cc2C1=O,-14,-2
C[C@H](CO)N1C[C@H](C)[C@H](CN(C)C(=O)NC2CCCCC2)OCCCC[C@H](C)Oc2ccc(NC(=O)C3CCCCC3)cc2C1=O,?,/
C[C@@H]1CN([C@@H](C)CO)C(=O)Cc2cc(NC(=O)Nc3cccc4ccccc34)ccc2O[C@@H]1CN(C)C(=O)Nc1ccc(C(F)(F)F)cc1,8,23

# (next part)
SMILES,Vaccinia inh,Vaccinia inh Venus
CC(C)NC(=O)Nc1ccc2c(c1)CC(=O)N([C@H](C)CO)C[C@@H](C)[C@H](CN(C)C(=O)Nc1ccccc1)O2,5,8
O=C(Nc1ccc2c(c1)[C@@H]1C[C@@H](CC(=O)N3CCc4ccccc4C3)O[C@H](CO)[C@@H]1O2)c1cccnc1,0,6
N#Cc1cccc(-c2ccc3c(c2)[C@H]2[C@H](CCN2S(=O)(=O)c2ccccc2F)[C@@H](CO)N3)c1,?,/
CCCNC(=O)Nc1ccc2c(c1)C(=O)N(C)C[C@H](OC)[C@@H](C)CN(Cc1cccnc1)[C@H](C)CO2,19,20
COCC(=O)Nc1ccc2c(c1)OC[C@H](C)N(C(=O)c1ccccc1)C[C@H](C)[C@H](OC)CN(C)C2=O,0,0
COc1ccc(NC(=O)Nc2ccc3c(c2)[C@@H]2C[C@@H](CC(=O)NCCc4ccccc4)O[C@@H](CO)[C@@H]2O3)cc1,-8,-2
CCCNC(=O)N1[C@H](CO)[C@H](c2ccccc2)C12CN(C(=O)c1cccnc1)C2,11,5
COc1ccc(CN(C)C[C@@H]2Oc3ccc(NC(=O)CCC(F)(F)F)cc3CC(=O)N([C@H](C)CO)C[C@@H]2C)cc1,-1,-1
C[C@@H]1CN([C@H](C)CO)C(=O)c2cc(C#Cc3ccccc3F)cnc2O[C@H]1CN(C)C(=O)C1CCOCC1,7,23
C[C@@H]1CN([C@@H](C)CO)C(=O)Cc2cc(NC(=O)Cc3ccccc3)ccc2O[C@@H]1CN(C)S(=O)(=O)c1ccccc1,10,16
COc1ccc2c3c([nH]c2c1)[C@H](CO)N(C(=O)C1CCCC1)CC31CCN(S(C)(=O)=O)CC1,10,4
COc1ccc(S(=O)(=O)Nc2cccc3c2O[C@@H](CN(C)S(=O)(=O)c2ccc(F)cc2)[C@H](C)CN([C@@H](C)CO)C3=O)cc1,-11,-2
Cc1noc(C)c1NC(=O)N[C@@H]1CC[C@H](CCNC(=O)C2CCCCC2)O[C@H]1CO,9,0
Cc1noc(C)c1NC(=O)N(C)C[C@@H]1Oc2c(NC(=O)C3CC3)cccc2C(=O)N([C@@H](C)CO)C[C@@H]1C,8,9
O=C(C[C@@H]1C=C[C@H](NS(=O)(=O)c2cccc(F)c2)[C@H](CO)O1)N1CCCCC1,5,-8
C[C@H](CO)N1C[C@H](C)[C@H](CN(C)C(=O)Nc2ccc3c(c2)OCO3)Oc2c(NC(=O)C3CCOCC3)cccc2C1=O,6,9
COCC(=O)Nc1ccc2c(c1)C(=O)N(C)C[C@@H](OC)[C@@H](C)CN(C(=O)CC1CC1)[C@@H](C)CO2,-6,1
Cc1noc(C)c1S(=O)(=O)Nc1ccc2c(c1)CC(=O)N([C@H](C)CO)C[C@@H](C)[C@H](CN(C)CC1CCCCC1)O2,-6,-1
CC(C)NC(=O)N1C[C@H]2[C@@H](c3ccccc31)[C@@H](CO)N2C(=O)Nc1cccc(F)c1,-2,3
CO[C@H]1CN(C)C(=O)c2ccc(NS(=O)(=O)c3cn(C)cn3)cc2OC[C@@H](C)N(Cc2cccc(F)c2)C[C@@H]1C,-17,-16
COc1ccc(NC(=O)Nc2ccc3c(c2)C(=O)N([C@H](C)CO)C[C@@H](C)[C@@H](CN(C)Cc2ccccc2)OCCCC[C@@H](C)O3)cc1,?,/
CNC(=O)C[C@H]1CC[C@@H]2[C@H](COc3ccc(NC(=O)c4ccc(F)c(F)c4)cc3C(=O)N2C)O1,4,6
CC(C)NC(=O)N(C)C[C@H]1Oc2c(NC(=O)C3CCCCC3)cccc2C(=O)N([C@H](C)CO)C[C@@H]1C,11,1
C[C@@H]1CN([C@@H](C)CO)C(=O)c2cc(C#Cc3ccccc3)cnc2O[C@@H]1CN(C)C(=O)c1ccccc1F,-8,-13
C[C@@H]1CN([C@H](C)CO)C(=O)c2cccc(NS(C)(=O)=O)c2O[C@@H]1CN(C)C(=O)Nc1ccc(C(F)(F)F)cc1,11,7
COc1ccc(NC(=O)Nc2cccc3c2O[C@@H](CN(C)S(C)(=O)=O)[C@H](C)CN([C@H](C)CO)C3=O)cc1,16,15
COc1ccc(CN(C)C[C@H]2OCCCC[C@@H](C)Oc3ccc(NC(=O)Nc4c(C)noc4C)cc3C(=O)N([C@H](C)CO)C[C@@H]2C)cc1,23,12
CC(C)C#Cc1ccc([C@H]2[C@@H](CO)N3C(=O)CN(C(=O)NC4CCCC4)C[C@H]23)cc1,4,6
C[C@H]1CN([C@@H](C)CO)C(=O)c2cc(-c3cncnc3)cnc2O[C@H]1CN(C)Cc1ccccc1,-7,-12
C[C@@H]1CN([C@H](C)CO)C(=O)c2cccc(NS(=O)(=O)c3cccs3)c2O[C@@H]1CN(C)Cc1ccc(C(=O)O)cc1,10,2
C[C@@H]1C=C(C(=O)N2CCN(Cc3ccc4c(c3)OCO4)CC2)O[C@H](OCc2ccc(CO)cc2)C1,3,-1
C[C@H](CO)N1C[C@H](C)[C@H](CN(C)Cc2ccccc2)Oc2ccc(NC(=O)CCCCCC(=O)Nc3ccccc3N)cc2CC1=O,?,/
O=C(N[C@H]1CC[C@H](CCNS(=O)(=O)Cc2ccccc2)O[C@H]1CO)c1ccc2c(c1)OCO2,-2,6
C/C=C/c1ccc([C@H]2[C@H](CO)N[C@H]2CN(CC)C(=O)c2ccccn2)cc1,-21,-5
C[C@@H]1CN([C@@H](C)CO)S(=O)(=O)c2ccc(C3=CCCC3)cc2O[C@H]1CN(C)Cc1ccccc1,-18,-22
O=C(C[C@H]1C[C@H]2c3cc(NC(=O)C4CCOCC4)ccc3O[C@H]2[C@H](CO)O1)NC1CCCCC1,5,2
CO[C@H](CN(C)Cc1nccs1)[C@@H](C)CN([C@@H](C)CO)S(=O)(=O)c1ccc(C)cc1,-3,-2
O=C(NCC[C@H]1CC[C@H](NS(=O)(=O)Cc2ccccc2)[C@H](CO)O1)C1CCOCC1,6,-2
COc1cccc(CN2CC3(CCN(Cc4ccccn4)CC3)c3c([nH]c4cc(OC)ccc34)[C@@H]2CO)c1,-13,-2
C[C@H]1CN([C@@H](C)CO)C(=O)c2cccc(NC(=O)Nc3ccc(C(F)(F)F)cc3)c2O[C@@H]1CN(C)Cc1ccncc1,-4,-8
C[C@H]1CN([C@@H](C)CO)C(=O)c2cc(NC(=O)Nc3ccc(F)cc3)ccc2O[C@H]1CN(C)C(=O)Nc1ccc2c(c1)OCO2,19,12
C[C@@H]1CN([C@@H](C)CO)C(=O)Cc2cc(NC(=O)CCN3CCOCC3)ccc2O[C@H]1CN(C)CC1CC1,-5,-3
C[C@H](CO)N1C[C@H](C)[C@@H](CN(C)CC2CC2)Oc2ccc(NC(=O)CCN3CCOCC3)cc2CC1=O,8,-2
C[C@H](CO)N1C[C@H](C)[C@@H](CN(C)Cc2ccncc2)OCCCC[C@H](C)Oc2ccc(NC(=O)Nc3ccccc3)cc2C1=O,15,8
CC(C)c1cn(CC[C@@H]2CC[C@@H](NC(=O)c3cccc(F)c3)[C@H](CO)O2)nn1,-4,-8
CC(=O)N(C)C[C@@H]1Oc2ncc(-c3ccccc3F)cc2C(=O)N([C@@H](C)CO)C[C@H]1C,22,10

# High-throughput results (PubChem BioAssay)

# An excerpt, so the mix of outcomes need not match the whole.
